PK Bst: Pyruvate Kinase | 1.2% of 51,000 active | Potency, µM | partly purified Bacillus stearothermophilus pyruvate kinase, luminescence ATP production; ribose 5-phosphate activator present at AC10; in the data active means potency below about 11 µM; inconclusive means mostly about 12 µM to 25 µM; inactive means weaker than that;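 the screen sought inhibitors and activators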;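 also: potency is read from the fitted curve at half-maximal effect; scaled between full activation by ribose 5 phosphate and full inhibition by luteolin; about four in five hits inhibit and the cells do not say which; series up to 57 µM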
TsaE inh: qHTS Assay for Inhibitors of YjeE; tRNA threonylcarbamoyladenosine biosynthesis protein TsaE (Escherichia coli (strain …; purified YjeE, fluorescence polarisation of a bound ADP probe; Potency, µM; 0.05% of 71,000 active; active = well fitted falling curve; inconclusive = weaker or top-dose-only fall, or a rising curve; inactive = flat or poorly fitted curve;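 also: top concentration of the series not given in the record; excess ADP was the control for the full effect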
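Fluorescence polarization of a BODIPY Texas Red–ADP probe (2 uM) bound to purified YjeE (10 uM) was read after 15 min room-temperature incubation with compounds. Loss of polarization marks inhibitors; ADP serves as titrated control.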
* = called active by the depositor; i = inactive; ? = inconclusive; · = not tested or not shown. This is a subset; rates above refer to the full screens.

SMILES	PK Bst	TsaE inh
CNCC[C@H](Oc1ccc(C(F)(F)F)cc1)c1ccccc1	·	i
O=C(Nc1ccc(Cl)cc1C(=O)Nc1ccccn1)c1ccco1	·	i
O=C(CCc1nc(-c2ccccc2F)no1)NCCc1ccccc1Cl	>57	i
Cc1ccc(P(=O)(OCCN2CCOCC2)C(C)(C)C)o1 (stereo not drawn)	>57	i
CCCC(Cl)CCCC(Cl)CCC(Cl)CCC(Cl)CCC(Cl)CCCC(Cl)CCC (stereo not drawn)	·	i
O=C(NCc1ccccn1)c1cc2cc(Br)ccc2oc1=O	>57	i
CCOc1ccc(NC(C)=O)cc1N	·	i
CCN(CC)CCCNc1oc(-c2ccc(OC)c(OC)c2)nc1C#N	·	i
Cc1c(-c2cccs2)[n+](=O)c2c(n1[O-])CCC2	>57	i
c1csc(CNc2ncncc2-c2ccc3c(c2)OCO3)c1	·	i
O=c1c(O)c(-c2ccc(O)c(O)c2)oc2c(OC[C@H]3O[C@@H](O)[C@@H](O)[C@H](O)[C@@H]3O)c(O)cc(O)c12	·	i
CC1(C)CC(=O)c2cn3c(nc2C1)nc1ccccc13	>57	i
CCC(=O)c1ccc(N2CCN(C(=O)COc3ccc(F)cc3)CC2)c(F)c1	·	i
Fc1cc2nccnc2cc1N1CCSCC1	>57	i
CC1=C(C(=O)Nc2ccccc2)C(c2ccc(C)o2)n2c(s/c(=C\c3ccco3)c2=O)=N1 (stereo not drawn)	>57	i
CCCCOC(=O)n1c(SCC(=O)N(CC)CC)nc2ccccc21	>57	i
CC1(C)Cc2c(sc3c2C(=O)N(c2ccccc2)C2=NCCCN23)CO1	>25.6	·
CNc1nnc(CSc2nc(C)cc(C)n2)s1	>57	i
COC(=O)C(NS(=O)(=O)c1ccc(NC(C)=O)cc1)C(C)C (stereo not drawn)	>57	i
O=C(NCC12CC3CC(CC(C3)C1)C2)c1nn2c(c1Cl)NC(c1ccco1)CC2C(F)(F)F (stereo not drawn)	>57	i
CC(=O)Nc1c(C(=O)O)oc2ccccc12	>57	i
O=C(NCc1ccc2c(c1)OCO2)C1CC(=O)N(c2ccc(O)cc2)C1 (stereo not drawn)	>57	i
O=C(NCc1cccnc1)c1cccc(Cl)c1	>57	i
CC(C)C(C(=O)NCc1ccco1)N(C(=O)CNS(=O)(=O)c1ccc(Cl)cc1)C1CCCC1 (stereo not drawn)	>57	i
Cc1ccccc1NC(=O)CN(C)S(=O)(=O)c1cccc2cccnc12	·	i

(cont.)
SMILES	PK Bst	TsaE inh
O=C(CS(=O)CC(=O)Nc1cccc2c1CCCC2)Nc1ccc(F)cc1 (stereo not drawn)	>57	i
Cc1noc(C)c1CSc1nc2cc(S(=O)(=O)N3CCOCC3)ccc2o1	>57	i
CC(C(=O)NCCC1=CCCCC1)N1C(=O)c2ccccc2C1=O (stereo not drawn)	>57	i
CC(c1ccccc1)n1cc(C(=O)NCCCn2ccnc2)nn1 (stereo not drawn)	>57	i
COc1cccc(CNCc2ccccn2)c1OC	·	i
COc1cc(-c2[o+]c3cc(O)cc(O)c3cc2O)cc(O)c1O	·	i
CCC#CCOCC(=S)Nc1ccccc1	·	i
CSc1ncc(Cl)c(C(=O)Nc2nnc(SC)s2)n1	>57	i
CCc1c2c(nc3cccc(C(C)C)c13)-c1cccc(=O)n1C2	·	i
CCn1c2c(c3cc(Br)ccc31)CCC/C2=N\O	·	i
COc1cccc(CNn2cnnc2)c1OCc1ccc(F)cc1	>57	i
CCCCc1cc(=O)oc2cc(C)cc(OCc3nn[nH]n3)c12	>57	i
CC(C)C(=O)Nc1cc(=O)[nH]c2ncnn12	>57	i
COc1ccccc1N1CCN(C(=O)C2CC=CCC2C(=O)O)CC1 (stereo not drawn)	>57	i
CCCNC(C)(C)COC(=O)c1ccccc1	·	i
Cc1cnc(CNc2ncnc3ccc(-c4ccoc4)cc23)cn1	·	i
CCN(CC)CCNC(=O)c1ccc(NC(C)=O)cc1	>25.6	i
O=C(O)CCCC(=O)Nc1ccc(C(=O)NCc2cccnc2)cc1	>57	i
Cc1ccc2c(c1)NC(=O)C(CC(=O)NCCCN1CCCCC1C)O2 (stereo not drawn)	·	i
Cn1c(=O)n(CC(=O)NC2CCCCC2)c(=O)c2ccccc21	>57	i
CCCC[C@@H]1C[C@H]1C(NC(=O)c1ccco1)c1ccccc1C(F)(F)F (stereo partly drawn)	·	i
CCCc1cc(=O)[nH]c(/N=C(/NC(=O)c2ccccc2)Nc2ccc3c(c2)OCCO3)n1	>57	i
CCOC(=O)Nc1c(C(=O)OC)[nH]c2cc(OC)ccc12	>57	i
COCCNc1cc(C)nc2c(-c3ccccc3OC)c(C)nn12	·	i
COc1cccc(C2=NOC(C(=O)N3CCc4ccccc4C3)C2)c1 (stereo not drawn)	·	i

The list goes on:
SMILES	PK Bst	TsaE inh
Cc1csc(SCCn2c(N3CCOCC3)nc3c2c(=O)[nH]c(=O)n3C)n1	·	i
Cc1nc(CNS(=O)(=O)c2cccnc2)cs1	>57	i
COc1cccc(C=Nc2cccnc2)c1O	·	i
CN1CCN(c2ccnc(-c3ccccc3C(F)(F)F)n2)CC1	·	i
CC(=O)C1=C(C)NC(SCC(=O)c2ccc(C)cc2)=C(C#N)C1c1ccco1 (stereo not drawn)	·	i
CN(Cc1cc(Cl)cc(Cl)c1O)Cc1c(O)ccc2ccccc12	·	i
CCN(C(=O)CSc1nc2nc(C)cc(C)n2n1)c1ccccc1	>57	i
Cc1cccn2c(=O)c3cc(C(=O)NCCN4CCOCC4)n(Cc4ccccc4)c3nc12	>57	i
O=C(C1CCN(c2nnc(N3CCCC3=O)s2)CC1)N1CCN(Cc2ccc3c(c2)OCO3)CC1	>57	i
CC(C)c1ccc2oc(-c3ccc(N)cc3)nc2c1	·	i
Nc1nc(SCC(=O)O)[nH]c(=O)c1N	·	i
CCOC(=O)c1cc(NC(=O)c2ccoc2C)cc(C(=O)OCC)c1	>57	i
C=CCn1c(SCc2c(F)c(F)c(F)c(F)c2F)nc(O)cc1=O	>25.6	·
O=C1OCC2=C1C(c1ccc3c(c1)OCO3)Sc1ccccc1N2 (stereo not drawn)	>57	i
CCN(CC)c1ccc(C=Nc2ccc(C#N)cc2)c(O)c1	·	i
CCCN1CCN(CCCNC(=O)C2CCCN(c3nc4ccc(OCC)cc4s3)C2)CC1 (stereo not drawn)	i	i
Cc1nn2c(C(F)(F)F)cc(-c3ccc(Cl)cc3)nc2c1C(=O)N1CCOCC1	·	i
CCOC(=O)CN1c2ccccc2NC(=O)CC1C (stereo not drawn)	·	i
CCc1nc(C)ccc1OCC(=O)O	>57	i
Cc1cc(C)c(C#N)c(SCC(=O)N(C)C2CCCCC2)n1	>57	i
CCN1CCCC1CNS(=O)(=O)c1ccc(C(=O)Nc2ccccc2)cc1 (stereo not drawn)	>57	i
CCOCCCn1cnc2c(c1=O)c1nc3ccccc3nc1n2-c1ccc(C)cc1	>57	i
COc1ccc(C2CC(=O)Nc3ccccc3S2(=O)=O)cc1OC (stereo not drawn)	>57	i
O=C1CC(N2CCN(S(=O)(=O)c3cccc(C(F)(F)F)c3)CC2)C(=O)N1Cc1ccccc1 (stereo not drawn)	>57	i
CCOC(=O)CSc1nnc(CNC(=O)c2ccco2)n1C	>57	i

(list continues)
SMILES	PK Bst	TsaE inh
CCOC(C)(C)C	·	i
CCc1c(C)nc2ncnn2c1N1CCC(C(=O)NCc2ccc3c(c2)OCO3)CC1	>57	i
O=C(CN1CCC(n2nnc3cc(F)ccc32)CC1)NCc1ccco1	>57	i
c1csc(-c2nnc(-c3ccc(N4CCOCC4)cc3)o2)c1	?	i
COc1ccc(NC(=O)CSc2nnc(-c3ccccn3)n2N)cc1Cl	>57	i
Cc1cccc(S(=O)(=O)c2c(N)n(Cc3ccco3)c3nc4ccccc4nc23)c1	>57	i
COc1cc(-c2nc3oc4ccccc4c(=O)c3c(=O)n2Cc2ccco2)cc(OC)c1OC	>57	i
Cc1cc(OCCN2CCOCC2)nc2ccccc12	>11.4	·
OCCN1CCOCCN(CCO)CCOCC1	>57	i
Cn1c(=O)c2c(nc(CN3CCOCC3)n2CCCO)n(C)c1=O	>57	i
CCOC(=O)N1CCN(C(=O)c2cc(C)no2)CC1	·	i
CCOC(=O)c1nnn(CC(=O)Nc2ccccc2OC)c1C(=O)OCC	>57	i
Cc1ccc(C)n1CCN1CCN(C(=O)c2ccco2)CC1	>57	i
COc1ccc(CCNC[C@H](O)c2ccc(O)cc2)cc1OC	·	i
CC(/C(O)=C(\C#N)c1nc2ccccc2n1C)N1C(=O)c2ccccc2C1=O (stereo not drawn)	>57	i
CCCCOC(=O)Nc1nc(C)c(C(=O)OCC)s1	·	i
CC(CC(=O)O)(CC(=O)O)c1ccccc1	·	i
Cc1cc(C)cc(-n2c3nc4ccccc4nc3c3c(=O)n(Cc4ccco4)cnc32)c1	>25.6	·
N#CNC(N)=Nc1ccc(Cl)cc1	·	i
CCCc1nc2ccccc2c(=O)n1-c1c(C)n(C)n(-c2ccccc2)c1=O	>57	i
O=C1c2ccccc2C(=O)N1CCSc1nnc(-c2ccco2)n1Cc1ccccc1	>57	i
O=C1CC(N2CCN(c3ccccc3F)CC2)C(=O)N1c1ccc2c(c1)OCCO2 (stereo not drawn)	>57	i
Cc1oc(-c2ccccc2F)nc1CS(=O)(=O)CC(=O)NCCCc1ccccc1	·	i
CCc1c(C)nc(N)n2c(SCC(=O)N3CCN(c4ccccc4)CC3)nnc12	>57	i
COc1cccc(C2C(C(=O)NCc3ccccc3)=C(C)Nc3ncnn32)c1 (stereo not drawn)	>57	i

Grouped by structure, those above containing bromine (two)
SMILES	PK Bst	TsaE inh
O=C(NCc1ccccn1)c1cc2cc(Br)ccc2oc1=O	>57	i
CCn1c2c(c3cc(Br)ccc31)CCC/C2=N\O	·	i

Back to the main list; the six compounds before the break are reprinted first.
SMILES	PK Bst	TsaE inh
CCCc1nc2ccccc2c(=O)n1-c1c(C)n(C)n(-c2ccccc2)c1=O	>57	i
O=C1c2ccccc2C(=O)N1CCSc1nnc(-c2ccco2)n1Cc1ccccc1	>57	i
O=C1CC(N2CCN(c3ccccc3F)CC2)C(=O)N1c1ccc2c(c1)OCCO2 (stereo not drawn)	>57	i
Cc1oc(-c2ccccc2F)nc1CS(=O)(=O)CC(=O)NCCCc1ccccc1	·	i
CCc1c(C)nc(N)n2c(SCC(=O)N3CCN(c4ccccc4)CC3)nnc12	>57	i
COc1cccc(C2C(C(=O)NCc3ccccc3)=C(C)Nc3ncnn32)c1 (stereo not drawn)	>57	i
COc1ccc(S(=O)(=O)NC2CC(C)(C)NC(C)(C)C2)c(C)c1C	>57	i
COc1ccccc1N1CCN(CC(O)COc2ccc(S(=O)(=O)N3CCOCC3)cc2)CC1 (stereo not drawn)	>57	i
CCSc1nnc(NC(=O)c2cccc(OCc3c(C)noc3C)c2)s1	>57	i
Cc1cc(S(=O)(=O)Nc2cccnc2)c(C)s1	>57	i
CC(C)(C)c1[nH]nc2c1C(c1ccccc1OC(=O)N1CCOCC1)C(C#N)=C(N)O2 (stereo not drawn)	>57	i
Cc1nn(C)c(C)c1S(=O)(=O)N1CCCC(C(=O)NC2CCCCCC2)C1 (stereo not drawn)	·	i
COC(=O)c1ccc(OC(=O)c2ccc(OCc3c(C)noc3C)c(OC)c2)cc1	>57	i
COC(=O)C1=CN(C)C=C(C(=O)OC)C1c1ccccc1Cl	>57	i
Cc1cc(NC(=O)Cn2cc(C(F)(F)F)cc(Cl)c2=O)no1	>57	i
COc1ccc(OC(C)C(=O)N2CCc3ccccc3C2)cc1 (stereo not drawn)	i	i
CC(=O)N1CCN(c2cccc(C)c2C)CC1	·	i
Cc1oc(-c2ccccc2F)nc1CS(=O)CC(=O)NCc1cccs1 (stereo not drawn)	·	i
CN(C)c1ccnc(SCc2ccccc2Cl)c1C#N	·	i
COCCn1c(=O)c(-c2cc(F)cc(F)c2)nc2cnc(OCc3ccccc3)nc21	·	i
COc1ccc2c(c1OC)C(=O)O[C@@H]2[C@H]1c2c(cc3c(c2OC)OCO3)CCN1C	>25.6	i
Cc1nc2ccc3nc(NC(=O)c4ccc5c(c4)OCCO5)sc3c2s1	>57	i
Cc1ccc(Cn2c(N3CCCCCC3)nc3c2c(=O)[nH]c(=O)n3C)cc1	>57	i
Cc1onc(-c2c(F)cccc2Cl)c1C(=O)NCc1cccs1	>57	i
c1cn(CC2(Cn3ccnc3)COC2)cn1	>57	i
O=C(O)c1ccc(CSc2nnc(-c3ccco3)o2)cc1	·	i
CN(C)c1ccc(Nc2nc(-c3cccnc3)cs2)cc1	·	i
Cc1noc(C)c1S(=O)(=O)N1CCCC(C(=O)N2CCc3ccccc3C2)C1 (stereo not drawn)	·	i
CN[C@@H]1NC(=O)c2ccccc2N1Cc1ccc(F)cc1	·	i
Cc1nc2ccc(C(=O)N3CCSCC3)cc2s1	>57	i
Cc1c(NC(=O)NCc2ccccc2)c(=O)n(-c2ccccc2)n1C	>57	i
CC(C)c1ccc2c(c1)c(SC(C)(C)C)c(CC(C)(C)C(=O)O)n2Cc1ccc(Cl)cc1	·	i
Cc1cc(Cl)ccc1OCC(=O)N1CC(C)CC(C)C1 (stereo not drawn)	>57	i
CCOC(=O)C1[C@H]2C(=O)N(CCCOC)C[C@]23C=C[C@H]1O3 (stereo partly drawn)	>57	i
Cc1nnc2c(NC(C)C)nc3ccccc3n12	>25.6	·
C=CCn1c(=N)n(CC(O)c2ccco2)c2ccccc21 (stereo not drawn)	·	i

Part of the list above in order of SMILES length, largest number first:
SMILES	PK Bst	TsaE inh
COC(=O)c1ccc(OC(=O)c2ccc(OCc3c(C)noc3C)c(OC)c2)cc1	>57	i
Cc1c(NC(=O)NCc2ccccc2)c(=O)n(-c2ccccc2)n1C	>57	i
Cc1cc(Cl)ccc1OCC(=O)N1CC(C)CC(C)C1 (stereo not drawn)	>57	i

Screens: PubChem BioAssay, National Center for Advancing Translational Sciences (NCATS)
